From PubChem
Rango dissoc inh – qHTS Assay for Inhibitors of RanGTP induced Rango (Ran-regulated importin-beta cargo) - Importin beta complex dissociation; Snurportin-1 (Homo sapiens) + GTP-binding nuclear protein Ran (Homo sapiens) + Importin …; Biochemical FRET Rango-importin beta, RanGTP-induced dissociation; Potency, µM (series often up to 46.1 µM), inactives show at the top dose activity change, negative = inhibition; hit rate 0.071% among 340,000; active means falling FRET ratio curve, often poorly fitted, with flat reads before Ran was added; inconclusive means other falling curves, or compound fluorescence or quenching; inactive means flat or rising ratio curve;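 further: potency means the concentration at half of the fitted maximal effect; % of control where 0% means no effect; nearly all actives have a fitted effect of over 45% in size; -100% = wells without RanGTP and RCC1; the record marks most hits as doubtful in a second field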
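FRET read at 45 min, room temperature: inhibitors block the CFP/YFP signal rise when RanGTP (0.6 uM Ran, 2 mM GTP, 0.2 uM RCC1) frees Rango (0.1 uM) from importin beta (0.25 uM). Pre-read after 5 min compound exposure flags interference.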
GLA inh pH 4.5 – qHTS Assay for Inhibitors of Human alpha-Galactosidase at pH 4.5 | 230,000 tested, under 10 active | purified enzyme, 4-MU-alpha-Gal fluorescence, pH 4.5 | activity change, negative = inhibition, % at 105 µM | AID 1467, 2008 | Alpha-galactosidase A (Homo sapiens), P06280; inconclusive = small, poorly fitted or top-dose-only inhibition, or a rising curve; inactive = flat fitted curve, though single readings scatter; no compound was filed as active;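 further: 0% = full activity with enzyme and -100% = basal without enzyme; dose as in the result columns while the protocol names 77 µM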
Target sequence (P06280 whole entry, looked up): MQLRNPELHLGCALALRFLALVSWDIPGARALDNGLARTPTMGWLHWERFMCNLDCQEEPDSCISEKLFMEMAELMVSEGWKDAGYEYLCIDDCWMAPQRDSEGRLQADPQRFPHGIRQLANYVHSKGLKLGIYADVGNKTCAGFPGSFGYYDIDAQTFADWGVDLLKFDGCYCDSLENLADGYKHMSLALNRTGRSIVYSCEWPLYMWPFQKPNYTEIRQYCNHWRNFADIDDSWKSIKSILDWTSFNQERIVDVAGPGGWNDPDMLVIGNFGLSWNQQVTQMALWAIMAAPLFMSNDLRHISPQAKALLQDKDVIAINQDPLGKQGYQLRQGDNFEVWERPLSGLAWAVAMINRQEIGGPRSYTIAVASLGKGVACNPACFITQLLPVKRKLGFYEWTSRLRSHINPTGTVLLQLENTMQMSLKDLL
Rango-impB inh – qHTS Assay for Inhibitors of Rango (Ran-regulated importin-beta cargo) - Importin beta complex formation; Importin subunit beta-1 (Homo sapiens), Q14974; Rango CFP/YFP FRET sensor + importin beta, 45 min; Potency, µM (top dose mostly 92.2 µM), for inactives: at the top dose inhibition of complex formation; hit rate 0.031% among 340,000; AID 540263, 2011; active = rising FRET ratio curve, often small or poorly fitted; inconclusive = mostly compound fluorescence or quenching in the first reads; inactive = flat curves in all reads;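 further: potency means the concentration at half of the fitted maximal effect; 0% = DMSO wells and 100% = buffer wells lacking importin beta; nearly all actives have a fitted effect of over 15% in size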
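FRET biosensor (snurportin 1 IBB flanked by EYFP and cerulean), 50 nM, with compound 5 min, then 0.125 microM importin beta in PBS, 1 mM DTT, 0.02% Tween-20, 0.1% BSA. CFP/YFP ratio read after 45 min at room temperature; pre-read flags interference.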
miR-21 FLuc – qHTS Assay for Modulators of miRNAs and/orActivators of miR-21. HeLa miR-21 FLuc reporter, luciferase, 48 h. Potency, µM (doses to about 38.3 µM), for inactives: top-dose reporter change, positive = more light. 340,000 tested, under 10 active; active = well fitted rising curve with a large enough effect; inconclusive = small, poorly fitted or top-dose-only effect; inactive = no such curve, though single readings can be large or run the other way;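 further: % of control where 0% means no effect; miR-21 action dims this reporter so a rising signal means less miR-21 action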
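Using DMEM plus 10% FBS, HeLa miR-21-FLuc cells are incubated with test compounds (final up to about 40uM) for 48 hours; firefly luciferase signal is then imaged following reagent-mediated lysis.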
Starred values were filed as active, the others as inactive; ? = inconclusive; . = no result given; & = joins results of further samples; [ ] = remark or other dose.

miR-21 FLuc | GLA inh pH 4.5 | Rango dissoc inh | Rango-impB inh | mol
28% | -7 | -16% | ? | CCOC(=O)C1=C(c2ccccc2)NC(SCC(=O)Nc2ccc(C)cc2)=C(C#N)C1c1ccco1 (centres undefined)
0% | 1 | -13% | -0.1% | O=C(COc1ccc([N+](=O)[O-])cc1Cl)Nn1cnnc1
23% | . | ? | ? | Cc1cccc(CN2C(=O)/C(=C\c3ccc(C(=O)NCCN4CCOCC4)cc3)Sc3ccccc32)c1
-38% | 2 | -1% | 1.3% | O=C(CCCc1ccccc1)Nc1ccccn1
. | . | 6% | 4.4% | COC(=O)[C@]1(Cc2ccccc2)N[C@H](c2ccc(-c3cccc(Cl)c3)cc2)[C@@H]2C(=O)N(C)C(=O)[C@@H]21
4% | . | 1% | 3.4% | Cc1cc(-c2ccc(C)c(S(=O)(=O)NCc3ccc(OC(C)C)cc3)c2)on1
-4% | -4 | -8% | 6.2% | COC(=O)c1sccc1NC(=O)C1C2C=CC(C2)C1C(=O)O (centres undefined)
8% | . | -7% | 2.4% | O=C(C1CCCN(S(=O)(=O)c2ccc([N+](=O)[O-])cc2)C1)N1CCCCC1 (centres undefined)
-1% | 2 | 22% | -2.4% | COc1ccc(NC(=O)c2cc(Cl)ccc2NC(=O)c2ccco2)c(OC)c1
-3% | -3 | -7% | -0.2% | CC1CCCCC1NC(=O)C(Cc1ccccc1)NS(=O)(=O)c1cccs1 (centres undefined)
-1% | . | -1% | -3.1% | CC(C)C[C@H](NC(=O)N1CC(=O)Nc2ccccc21)C(=O)N[C@H](C(=O)O)c1ccccc1
-8% | 4 | -1% | 0.6% | CCS(=O)(=O)n1nc(-c2ccccc2)nc1N
11% | 1 | -23% | ? | COc1cc2cc(/C=C/C(=O)c3ccco3)c(Cl)nc2cc1OC
. | . | -22% | -2.8% | c1ccc2c(C[C@@H]3CNCCN3CCCCC3CCCCC3)cccc2c1
-2% | -22 | -3% | -3.0% | Cc1ccc(CCNC(=O)CCS(=O)(=O)c2ccc(Br)cc2)cc1
-3% | 7 | -4% | -4.6% | Cc1ccc(NC(=O)CSc2nnc(CSc3nc(C)cc(C)n3)n2Cc2ccco2)c(C)c1
-22% | 1 | -15% | ? | Cc1ccc(/C=C2/NC(=O)N(Cc3ccccc3)C2=O)s1
21% | -6 | -2% | 6.7% | COc1ccccc1OCC(=O)/C=C1/N(C)c2ccccc2C1(C)C
-2% | . | -4% | 2.0% | Oc1ccc(/C=N/Nc2ccc(Cl)nn2)c(O)c1O
. | . | 8% | -1.8% | COC(=O)c1ccc(CNC(=O)COC(=O)CCC(=O)c2ccc(F)cc2)cc1
-3% | -12 | 2% | -0.4% | CC(=O)OCc1c(C(F)(F)F)nn(C)c1SCc1ccc(Cl)cc1
-45% | 0 | -3% | ? | O=C(COC(=O)c1ccccc1NC(=O)c1ccco1)NCCC1=CCCCC1
. | . | 5% | 0.0% | CC(Cc1ccccc1)=NNS(=O)(=O)c1ccc([N+](=O)[O-])cc1
0% | -9 | ? | ? | CCCNC(=O)c1ccc2c(=O)c(O)c(-c3ccc(OC)cc3)[nH]c2c1
-49% | . | 7% | 0.2% | N=c1n(N)c2ccccc2n1CC(=O)c1ccc(Br)cc1
2% | -3 | 14% | -2.6% | CSc1ccccc1NC(=O)c1cc(-c2cccnc2)nc2ccc(Br)cc12
-5% | . | -4% | -0.7% | CC1CCN(C(=O)CCc2nnc3ccc(NCc4ccco4)nn23)CC1
-9% | -18 | 3% | 6.8% | Cc1ccc(/C=N/NC(=O)CSc2nc3ccccc3n2Cc2ccc(Cl)cc2)o1
. | . | -1% | -1.1% | Cc1cc(C(=O)NCC(=O)OCC(=O)NCC2CCCO2)ccc1[N+](=O)[O-] (centres undefined)
. | . | 5% | 0.1% | O=C(COc1cc(F)ccc1[N+](=O)[O-])Nc1cc(S(=O)(=O)N2CCCC2)ccc1Cl
. | . | 4% | -2.6% | Cc1ccc(C)c(OCC(=O)N(Cc2nnc(-c3ccccc3Cl)o2)C2CC2)c1
2% | . | 3% | -3.6% | Cc1c(C(C)(C)O)[nH]c2ccc(C#N)cc12
-40% | 5 | -18% | -2.2% | Cc1cc2cc(CNC(=O)Nc3ccccc3)ccc2[nH]1
-5% | -7 | -3% | -0.5% | CC(=O)Nc1ccc(N2C(=O)CCC2=O)cc1C
. | . | -7% | 6.1% | CS(=O)(=O)Nc1ccccc1C(=O)OCC(=O)NC1CC1
. | . | -9% | -5.3% | CC1CCCN(CC(O)COc2ccc(S(=O)(=O)N3CCCC3)cc2[N+](=O)[O-])C1 (centres undefined)
-1% | 1 | -9% | -0.5% | COc1cc(OC)c(CN2CCN(c3ccc(F)cc3)CC2)cc1Br
. | 0 | ? | ? | CCN1/C(=C\c2ccc3cc(C)ccc3[n+]2CC)Sc2cc(C)c(C)cc21
1% | -3 | -7% | -3.5% | NC(=O)CSc1nc2ccccc2n1Cc1ccccc1F
-9% | . | -8% | 2.8% | CSc1cccc(NC(=O)CNS(=O)(=O)c2ccccc2)c1
21% | -3 | -12% | 3.3% | COc1ccc(CNC(=O)COc2ccc(C(=O)c3ccc(F)cc3)cc2)cc1
1% | . | 23% | 0.0% | Cc1cccc(C)c1OC(=O)CN1C(=O)c2ccccc2C1=O
-1% | -1 | 5% | 1.5% | O=C(Cn1nnc(-c2ccccc2F)n1)OCC(=O)c1ccccc1
4% | -11 | 1% | -1.2% | N=c1n(CCN2CCOCC2)c2ccccc2n1CC(O)COc1ccccc1 (centres undefined)
-4% | -2 | 2% | 1.7% | COc1ccc(S(=O)(=O)N2C(=O)/C(=C3\SC(N)=NC3=O)c3ccccc32)cc1
-11% | . | 0% | 1.1% | CC(=O)N1CCN(c2ccc(NC(=O)c3ccc(Cl)cc3)cc2)CC1
0% | 1 | -11% | 0.3% | O=C(Nc1ccc2c(c1)OCO2)C1CCCN(S(=O)(=O)Cc2ccccc2)C1 (centres undefined)
-7% | . | -2% | 4.5% | CCOc1cccc(-c2c(C(=O)N/N=C(\C)c3cccnc3)nnn2-c2nonc2N)c1
-2% | . | 12% | -1.4% | CC(=O)Nc1ccc(S(=O)(=O)NCc2ccc(C)n2C)cc1
-4% | 1 | 6% | -2.4% | C=CC(C)n1c(Br)nc2c1c(=O)[nH]c(=O)n2C (centres undefined)
-6% | -2 | -12% | -5.8% | CCN1C(=O)/C(=C\N2CCCc3ccccc32)SC1=S
. | . | 0% | 1.6% | Cc1ccccc1C#N
1% | . | 6% | 0.4% | COc1ccc(NC(=O)CN(c2ccc(F)cc2)S(=O)(=O)c2ccccc2)c(OC)c1
-35% | . | 11% | -0.3% | Fc1ccccc1NC(=S)NCCc1cccc(Cl)c1
-6% | -2 | -21% | 2.1% | NC(=O)c1c(N)sc(=S)n1-c1ccccc1
. | . | 0% | -0.4% | COc1ccc(C(=O)NNC(=O)Cc2nc3ccccc3n2C)cc1
-1% | -3 | -6% | -0.5% | Cc1ccc(C(=O)Oc2cc(-c3ccccc3)no2)cc1
-13% | 5[21.1 µM] | 4% | -2.8% | Cc1ccc(/C=N\NC(=O)COc2ccc(C)cc2[N+](=O)[O-])cc1
-60% | -10 | 3% | 6.8% | O=C(COc1ccc2ccccc2c1)N1CCCC1
-4% | 1 | 6% | 0.0% | COc1ccc(CCN(CC(=O)NC2CCCC2)C(=O)CCC(=O)Nc2cc(C)on2)cc1OC

Reformatted with each value named: 3 of the compounds above.
> NC(=O)CSc1nc2ccccc2n1Cc1ccccc1F
- miR-21 FLuc: 1%
- GLA inh pH 4.5: -3
- Rango dissoc inh: -7%
- Rango-impB inh: -3.5%

> CC(=O)Nc1ccc(N2C(=O)CCC2=O)cc1C
- miR-21 FLuc: -5%
- GLA inh pH 4.5: -7
- Rango dissoc inh: -3%
- Rango-impB inh: -0.5%

> COc1ccc(NC(=O)CN(c2ccc(F)cc2)S(=O)(=O)c2ccccc2)c(OC)c1
- miR-21 FLuc: 1%
- GLA inh pH 4.5: .
- Rango dissoc inh: 6%
- Rango-impB inh: 0.4%

As a short view, part of the list above:
miR-21 FLuc | GLA inh pH 4.5 | Rango dissoc inh | Rango-impB inh | mol
-60% | -10 | 3% | 6.8% | O=C(COc1ccc2ccccc2c1)N1CCCC1
-4% | 1 | 6% | 0.0% | COc1ccc(CCN(CC(=O)NC2CCCC2)C(=O)CCC(=O)Nc2cc(C)on2)cc1OC

Among those listed so far, these have an NH in an aromatic ring:
miR-21 FLuc | GLA inh pH 4.5 | Rango dissoc inh | Rango-impB inh | mol
0% | -9 | ? | ? | CCCNC(=O)c1ccc2c(=O)c(O)c(-c3ccc(OC)cc3)[nH]c2c1
2% | . | 3% | -3.6% | Cc1c(C(C)(C)O)[nH]c2ccc(C#N)cc12
-40% | 5 | -18% | -2.2% | Cc1cc2cc(CNC(=O)Nc3ccccc3)ccc2[nH]1
-4% | 1 | 6% | -2.4% | C=CC(C)n1c(Br)nc2c1c(=O)[nH]c(=O)n2C (centres undefined)

Other entries follow.
miR-21 FLuc | GLA inh pH 4.5 | Rango dissoc inh | Rango-impB inh | mol
-3% | -22 | -3% | -5.4% | NS(=O)(=O)c1cccc(NC(=O)Cc2ccc(Cl)c(Cl)c2)c1
0% | 13 | 3% | 1.6% | COc1ccc(-c2nnc3sc(CN4C(=O)c5ccccc5C4=O)nn23)cc1
-5% | 2 | 1% | 5.3% | Cc1ccc(CCNC(=O)C2CCCN(c3nc4ccccc4o3)C2)cc1 (centres undefined)
23% | -5 | 2% | 0.8% | CCOC(=O)/C(=C/c1c(C)n(C)c2ccc([N+](=O)[O-])cc12)C(C)=O
-4% | -22 | 8% | -1.1% | Cc1cc2ccccc2n1CCNC(=O)C1CCCC1
-1% | . | 1% | 3.3% | O=C(CN(C(=O)CNC(=O)c1cccs1)c1cccc(F)c1)NC1CCCCC1
. | . | 5% | 0.1% | O=C(COC(=O)C1CCN(c2ccc(C(F)(F)F)cn2)CC1)Nc1ncc(Cl)cc1Cl
0% | 1 | 8% | -1.2% | CCOC(=O)C1=C(C)OC(N)=C(C#N)C1c1ccc(C)o1 (centres undefined)
-18% | . | -8% | -0.4% | Cc1ccc(C(=O)Nc2ccc(C(=O)NCC3CCCO3)cc2)cc1 (centres undefined)
-1%&-3% | . | 10% | -1.2% | Cc1c(Cl)cccc1NC(=O)CC1Oc2ccccc2NC1=O (centres undefined)
0% | . | -12% | -5.6% | O=C(O)CNC(=O)/C(=C\c1ccco1)NC(=O)c1ccco1
-4% | . | 13% | 8.3% | C/C(=N\NC(=O)c1nnn(-c2nonc2N)c1CN(C)c1ccccc1)c1cccnc1
3% | 8 | -7% | 0.3% | CCOc1ccccc1N1CN(CC)CNC1=S
28% | -28 | 7% | 1.4% | COc1ccc(CN(C(=O)Cc2c[nH]c3ccccc23)C(C(=O)NC2CCCCC2)c2ccc(C)o2)cc1 (centres undefined)
-1% | 1 | 27% | 2.8% | CCCC/C(O)=C1\C(=O)CC(C)(C)CC1=NCCCCCC(=O)O
1% | 3 | 6% | 0.3% | O=C(c1cccc(F)c1)N1CCC(N2CCCCCC2)CC1
-25% | -4 | -2% | 3.9% | COc1ccc(OCC(=O)Nc2ccc(NC(=O)c3ccco3)cc2)cc1
7% | . | -1% | -4.1% | CCc1ccc(NC(=O)CCC(=O)N2CCSc3ccccc32)cc1
-10% | . | -6% | 3.0% | CC1=C(C)C(=O)N(C(C)CCc2ccccc2)C1=O (centres undefined)
-5% | 12 | -6% | -1.2% | Cc1ccc(Cl)cc1N1CCN(CC(=O)NC2CCCc3ccccc32)CC1 (centres undefined)
1% | 3 | 2% | 0.4% | CC(=O)SCCC(=O)N1C(C)CCCC1C(=O)O (centres undefined)
-7% | 7 | -4% | -0.4% | CC1CCCC(C)N1S(=O)(=O)c1ccc(NC(=O)CNCC2CCCO2)cc1 (centres undefined)

Only part of the results is shown. The share of hits here may be higher or lower than overall.
